PMI inhibitors: MPI enzyme activity inhibition – biochemical, fluorescence intensity, coupled assay, primary screen (AID 1209); one-dose inhibition, % at 20 µM; IC50 in µM for titrated hits; actives 0.42% (n = 190,000); purified PMI enzyme, coupled fluorescence intensity; higher % means a stronger effect;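 also: plate controls were DMSO vehicle for no effect and wells lacking substrate for full effect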
NOD1 NF-kB reporter: inhibition of NOD1-driven NF-kB reporter – cell-based, luminescence, uHTS, primary screen (AID 1578); NOD1-driven NF-kB luciferase reporter cells, luminescence; higher % means a stronger effect; actives 1% (n = 290,000); inhibition, % at 4 µM; hits with a dose series show EC50 in µM; in the data active = inhibition mostly above about 36%, no sharp cut-off; inactive = mostly below about 34%;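 also: HEK-293T reporter cells stimulated with the NOD1 agonist gamma-tri-DAP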
human PMI inhibitors: human PMI inhibitors, high substrate, primary screen, biochemical, fluorescence intensity, high mannose 6-phosphate (AID 1220); recombinant PMI enzyme, coupled fluorescence intensity; higher % means a stronger effect; actives 0.66% (n = 190,000); inhibition, % at 20 µM, or IC50 in µM where a hit was titrated
NOD2 inhibition: NOD2 signaling inhibitors, cell-based, luminescence, uHTS, HEK293 (AID 1566). actives 0.63% (n = 290,000). one-dose inhibition, % at 4 µM; EC50 in µM for titrated hits. HEK293 NOD2/NF-kB luciferase reporter, luminescence; higher % means a stronger effect; also: many of its hits are not listed in these tables
LYP phosphatase: PTPN22 lymphoid phosphatase activity blockers – biochemical, fluorescence intensity, uHTS (AID 1779). recombinant LYP phosphatase, fluorescence intensity; higher % means a stronger effect. inhibition, % at 11.5 µM; hits with a dose series show IC50 in µM. actives 0.054% (n = 290,000);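 also: plate controls were vehicle with enzyme for no effect and no enzyme for full effect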
XIAP antagonists: small molecules displacing peptide from XIAP – biochemical, IAP family, fluorescence polarization (AID 1018); XIAP BIR domain, fluorescence polarization peptide displacement; higher % means a stronger effect; displacement, % at 20 µM, or IC50 in µM where a hit was titrated; actives 0.007% (n = 200,000); in the data active = displacement above about 50%; also: a part of the inactive calls stands beside numbers as strong as those of hits
* = called active by the depositor; & = joins results of further samples. Rule as the data show it, unless noted: active = inhibition above about 50%; inactive = the rest.

The line under a structure holds: PMI inhibitors | NOD1 NF-kB reporter | human PMI inhibitors | NOD2 inhibition | LYP phosphatase | XIAP antagonists
1: CCOc1cc(C(=O)Nc2ncn[nH]2)cc(OCC)c1OCC
  -6.1% | -25.1% | -3.6% | 15.7% | -2.9% | -3.2%
2: COc1cccc(/C=N/Nc2nn3cnnc3c3ccccc23)c1O
  -4.0% | 7.9% | -12.5% | 4.1% | -6.0% | 3.8%
3: CC1(C)CC(=O)C(C=Nc2cccnc2/N=C/C2=C(O)CC(C)(C)CC2=O)=C(O)C1
  21.9% | -30.7% | 58.8%* | 8.2% | -9.5% | -6.4%
4: COc1ccc2c(c1OC)C(=O)O[C@@H]2[C@H]1c2c(cc3c(c2OC)OCO3)CCN1C
  3.7% | -11.7% | 6.7% | 10.3% | 1.2% | -19.8%
5: CC1(C)S[C@@H]2[C@H](NC(=O)Cc3ccccc3)C(=O)N2[C@H]1C(=O)O
  -7.5% | -45.9%&1.0% | -9.6% | 0.1%&24.7% | 6.4%&-9.6% | -10.9%
6: CCCCc1oc2ccccc2c1C(=O)c1cc(I)c(OCCN(CC)CC)c(I)c1
  -13.9% | -7.6% | -15.8% | 14.9% | -12.2% | -4.1%
7: Cc1ccc2nc(NC(=O)c3ccccn3)sc2c1
  1.0% | 108.7%* | 27.1% | 76.3%* | -2.0% | -4.8%
8: O=c1[nH]c(=O)n([C@H]2C[C@H](O)[C@@H](CO)O2)cc1C(F)(F)F
  0.9% | -118.7% | -2.2% | -13.2% | -3.6% | -11.5%
9: CC(O)Cn1cnc2c1c(=O)n(C)c(=O)n2C (stereo not given)
  -1.9% | -29.6% | -1.4% | 0.3% | -4.2% | 0.9%
10: COc1ccc(NS(=O)(=O)c2ccc(N)cc2)nn1
  3.9% | -19.2% | 6.1% | 3.5% | -4.0% | -6.9%
11: COc1cc(Cc2cnc(N)nc2N)cc(OC)c1OC
  -2.4%&15.5% | -16.4%&-27.4% | -5.3%&9.1% | 2.2%&7.5% | -12.1%&-5.9% | -1.0%&-4.7%
12: CC(C)NCC(O)COc1cccc2[nH]ccc12 (stereo not given)
  7.9% | -1.9% | 7.8% | -3.4% | -2.3% | -5.3%
13: OC(CCN1CCCC1)(c1ccccc1)C1CCCCC1 (stereo not given)
  -9.8% | -26.4% | -17.8% | -1.8% | -4.4% | -4.0%
14: NC(CO)C(=O)NNCc1ccc(O)c(O)c1O (stereo not given)
  78.0%* | -29.6% | 60.4%* | 3.3% | -1.5% | -18.8%
15: O=C(CN1C(=O)C2C3C=CC(C3)C2C1=O)Nc1nc(SCc2ccc(Cl)cc2)n[nH]1 (stereo not given)
  -2.3% | -1.4% | 0.6% | -7.8% | -4.8% | 1.0%
16: O=C(O)c1cccnc1
  -9.9% | -41.1% | -4.3% | -4.5% | -3.8% | -13.0%
17: CC/C(=C(/CC)c1ccc(O)cc1)c1ccc(O)cc1
  0.4% | 19.3% | 1.9% | -9.1% | 5.5% | -2.9%
18: c1ccc(C2CN3CCSC3=N2)cc1 (stereo not given)
  -5.4% | -35.9% | -6.5% | 24.3% | -4.2% | -2.7%
19: CCCCCCCCCCCCCCCCn1cc[n+](C)c1
  -11.3% | 1.2%&8.7% | -14.0% | 20.5%&17.0% | -11.1%&-15.8% | -10.9%
20: O=C(CCCN1CCC(O)(c2ccc(Cl)cc2)CC1)c1ccc(F)cc1
  2.5%&6.1% | 53.3%&0.4% | 1.8%&1.2% | -5.9%&-7.9% | -8.3%&-8.0% | -9.8%&-1.1%
21: CCc1cccc2c3c([nH]c12)C(CC)(CC(=O)O)OCC3 (stereo not given)
  12.0% | -52.2% | 43.5% | -1.0% | -0.8% | -22.1%
22: CCC(CO)NCCNC(CC)CO (stereo not given)
  -6.2% | 5.8% | -1.0% | 3.6% | -11.1% | 0.6%
23: CC(=O)NC(=S)NNC(=O)C(c1ccccc1)c1ccccc1
  -3.4% | -23.7% | -29.4% | 16.2% | -1.5% | -6.1%
24: Clc1ccc2c(c1)C(N1CCNCC1)=Nc1ccccc1O2
  5.2% | -21.2% | 4.9% | 5.8% | -2.6% | -4.2%
25: COc1ccccc1NC(=S)NNC(=O)c1nn(C)c(C)c1Br
  1.9% | -25.5% | 2.0% | -12.2% | -4.4% | -22.6%
26: CN1CCN2c3ccccc3Cc3ccccc3C2C1 (stereo not given)
  -41.3% | 0.4% | -45.4% | 17.1% | -9.0% | -6.6%
27: O=C(O)Cc1ccc(-c2ccccc2)cc1
  -11.0% | -29.5% | -13.2% | 7.0% | -1.2% | -3.9%
28: Cc1ccc(S(=O)(=O)N2CCCCC2)cc1C(=O)Nc1ncn[nH]1
  -6.1% | -5.1% | 2.0% | 9.5% | 0.8% | -4.3%

Entries from the list above with a carbonyl joined to an NH by a bond outside any ring:
The line under a structure holds: PMI inhibitors | NOD1 NF-kB reporter | human PMI inhibitors | NOD2 inhibition | LYP phosphatase | XIAP antagonists
1: CCOc1cc(C(=O)Nc2ncn[nH]2)cc(OCC)c1OCC
  -6.1% | -25.1% | -3.6% | 15.7% | -2.9% | -3.2%
5: CC1(C)S[C@@H]2[C@H](NC(=O)Cc3ccccc3)C(=O)N2[C@H]1C(=O)O
  -7.5% | -45.9%&1.0% | -9.6% | 0.1%&24.7% | 6.4%&-9.6% | -10.9%
7: Cc1ccc2nc(NC(=O)c3ccccn3)sc2c1
  1.0% | 108.7%* | 27.1% | 76.3%* | -2.0% | -4.8%
14: NC(CO)C(=O)NNCc1ccc(O)c(O)c1O (stereo not given)
  78.0%* | -29.6% | 60.4%* | 3.3% | -1.5% | -18.8%
15: O=C(CN1C(=O)C2C3C=CC(C3)C2C1=O)Nc1nc(SCc2ccc(Cl)cc2)n[nH]1 (stereo not given)
  -2.3% | -1.4% | 0.6% | -7.8% | -4.8% | 1.0%
23: CC(=O)NC(=S)NNC(=O)C(c1ccccc1)c1ccccc1
  -3.4% | -23.7% | -29.4% | 16.2% | -1.5% | -6.1%
25: COc1ccccc1NC(=S)NNC(=O)c1nn(C)c(C)c1Br
  1.9% | -25.5% | 2.0% | -12.2% | -4.4% | -22.6%
28: Cc1ccc(S(=O)(=O)N2CCCCC2)cc1C(=O)Nc1ncn[nH]1
  -6.1% | -5.1% | 2.0% | 9.5% | 0.8% | -4.3%

These rows are one share of the data; count on the stated rates, not on these rows.
